Assay outcomes from PubChem BioAssay.
CBX7 AlphaScr: CBX7 chromodomain binding inhibitors, primary screen, biochemical, AlphaScreen | Chromobox protein homolog 7 (Homo sapiens), O95931 | AlphaScreen His6-CBX7 / biotin-H3K27me3 peptide binding; stronger effect = lower value | normalised signal (fraction of DMSO) (concentration not given with the values) | 66,000 tested, 1.1% active; in the data active = normalised signal below about 0.5;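 note: 100 nL library stock added to about 20 µL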
Target sequence (O95931 whole entry, looked up): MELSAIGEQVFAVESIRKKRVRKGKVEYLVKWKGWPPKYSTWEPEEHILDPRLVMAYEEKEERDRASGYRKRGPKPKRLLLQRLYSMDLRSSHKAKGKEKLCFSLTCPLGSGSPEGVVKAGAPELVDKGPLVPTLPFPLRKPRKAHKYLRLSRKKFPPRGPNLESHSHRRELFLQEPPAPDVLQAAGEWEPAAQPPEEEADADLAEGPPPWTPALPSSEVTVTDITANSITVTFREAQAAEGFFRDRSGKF
CBX7 AlphaScr z-score: further read-out of CBX7 AlphaScr, marked with its call; z-score; measured here: z-score of CBX7 signal; some inactives read as strong as hits; reference of the scale not given here;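 same signal on another scale; lower means less binding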
* = called active by the depositor.

Sample of the layout, two compounds:
SMILES | CBX7 AlphaScr | CBX7 AlphaScr z-score
COc1ccc(-c2cc3nc(C)c(CCC(=O)NCCCN4CCCC4)c(C)n3n2)c(OC)c1 | 1.38 | 4.16
Cc1cccc(NC(=O)Cn2cc(S(=O)(=O)c3ccccc3)c(=O)c3cc(Cl)ccc32)c1 | 0.908 | -1.5

Main list, from the first entry:
SMILES | CBX7 AlphaScr | CBX7 AlphaScr z-score
COc1ccc(-c2cc3nc(C)c(CCC(=O)NCCCN4CCCC4)c(C)n3n2)c(OC)c1 | 1.38 | 4.16
Cc1cccc(NC(=O)Cn2cc(S(=O)(=O)c3ccccc3)c(=O)c3cc(Cl)ccc32)c1 | 0.908 | -1.5
CSc1cccc(Nc2cc(C(=O)NCc3cccs3)c3ccccc3n2)c1 | 1.24 | 6.65
Cn1nc(C(F)(F)F)cc1C(=O)Nc1ccc(S(=O)(=O)N2CCCC2)cc1 | 1.03 | 0.28
Cc1ccc(-n2cc(-c3ccc4c(c3)OCO4)[nH]c2=O)cc1Cl | 1.27 | 6.43
O=C(COc1ccc(Cl)cc1Cl)Nc1ccc2oc(-c3cccc(F)c3)nc2c1 | 1.23 | 1.72
COc1ccccc1Nc1nc(-c2ccc(OC)c(OC)c2)cs1 | 0.909 | -2.54
Cc1nn(C)c(C)c1S(=O)(=O)N(CC(=O)Nc1ccc(Cl)cc1)c1ccc(C(C)C)cc1 | 1.14 | 2.05
Cc1oc(-c2cccc(Cl)c2)nc1CN1CCCC(C(=O)NC2CCCCCC2)C1 (centres undefined) | 1.04 | 1.07
Cc1cc(C)c(OCC(=O)Nc2ccc(S(=O)(=O)Nc3ncccn3)cc2)c(C)c1 | 0.978 | -0.0763
Cc1cccc(C(=O)Nc2nnc(-c3ccc4c(c3)OCO4)s2)c1 | 1.06 | 2.58
Brc1cccc(-c2nnc3sc(CN4CCCCC4)cn23)c1 | 1.13 | 2.35
COc1ccc(-c2ccc(C(=O)O)c(=O)[nH]2)cc1 | 0.805 | -3.14
O=C(Nc1ccc(F)cc1F)c1ccc2c(c1)NC(=O)c1ccccc1S2 | 0.993 | -0.21
Cc1ccccc1Cc1c(C)nc2c(C(=O)NCc3ccc4c(c3)OCO4)cnn2c1C | 0.993 | -0.0701
CCOCCCNC(=O)CN1C(=O)COc2ccc(S(=O)(=O)N3CCC(C)CC3)cc21 | 1.02 | 0.823
NC(=O)C1CCN(C(=O)Cc2ccc(NC3=NC4CS(=O)(=O)CC4S3)cc2)CC1 (centres undefined) | 0.943 | -1.26
COCCCN(C(=O)Nc1ccccc1)C(C)c1ccncc1 (centres undefined) | 0.986 | -0.145
CC(C)c1ccc(OCc2nc(-c3ccccn3)no2)cc1 | 0.934 | -0.0741
CCOc1ccccc1C(=O)N1CC(=O)Nc2ccc(F)cc2C1c1ccccc1 (centres undefined) | 0.927 | -1.85
Cc1nn(-c2ccccn2)c2c1C(=O)CC(c1ccco1)C2 (centres undefined) | 0.905 | -1.23
Cc1ccc(-c2noc(C(C)Oc3cccc(Cl)c3)n2)cc1 (centres undefined) | 1.49 | 22
C=CCn1c(C(C)NC(=O)COC)nc2ccccc21 (centres undefined) | 0.957 | -0.625
Cc1ccc(Cl)cc1N1CCN(C(=O)CC2Oc3ccccc3NC2=O)CC1 (centres undefined) | 0.813 | -1.09
CCn1c(CCNC(=O)c2ccc(F)cc2)nc2ccccc21 | 0.859 | -2.15
Cc1ccc2c(c1)C(c1ccc(F)cc1)N(C(=O)CCC1CCCCC1)CC(=O)N2 (centres undefined) | 0.931 | -0.953
CCc1ccc(-c2csc(NC(=O)c3cccc(Oc4ccccc4)c3)n2)cc1 | 1.06 | 2.51
O=C(NCCc1ccc(Cl)cc1)c1cc(=O)[nH]c2ccc(S(=O)(=O)N3CCCCCC3)cc12 | 1.02 | 0.226
COc1ccc(C)cc1NC(=O)c1oc2ccc(S(=O)(=O)N3CCCCC3)cc2c1C | 0.995 | -0.239
CCCCN(CC)S(=O)(=O)c1ccc(C(=O)Nc2ccccc2-c2nc3ccccc3s2)cc1 | 1.15 | 3.41
CCn1c(=O)cc(OCC(=O)NCCN2CCN(c3cccc(Cl)c3)CC2)c2ccccc21 | 0.873 | -2.08
COc1ccc(-c2nnc(SCC(=O)N3CCC(C)CC3)o2)cc1 | 0.924 | -0.176
CC1CCCN(CCCNC(=O)c2cc(Nc3ccccc3)nc3ccccc23)C1 (centres undefined) | 1.24 | 3.98
Cc1cc2nc(-c3ccc(NC(=O)c4ccc5c(c4)OCCO5)cc3O)oc2cc1C | 0.975 | -0.417
Cc1cc(C)cc(OCC(O)CN2CCN(c3ccccc3)CC2)c1 (centres undefined) | 1.18 | 1.38
N#Cc1ccc(NC(=O)c2cc(-c3ccco3)on2)cc1 | 1.01 | 0.13
Brc1ccc(-c2noc(COc3ccccc3)n2)cc1 | 1.29 | 13.1
COc1ccccc1C1C(N2C(=O)c3ccccc3C2=O)C(=O)N1c1ccc(C)cc1 (centres undefined) | 1.04 | 0.914
CC(C)OCCCNC(=O)c1cc(-c2ccncc2)nc2ccccc12 | 1 | 0.00627
COc1nnc(-c2ccc(N3CCOCC3)c(NC(=O)COc3ccc([N+](=O)[O-])cc3)c2)c2ccccc12 | 1 | 0.0969
O=C(NCCCN1CCC(Cc2ccccc2)CC1)c1ccc2nc(N3CCOCC3)sc2c1 | 1.59 | 5.5
COC(=O)c1ccc(-n2ncnc2-c2ccc(Br)cc2)cc1 | 1.02 | 0.262
CCCN(CCC)S(=O)(=O)c1ccc2c(c1)N(CC(=O)NCc1cccnc1)C(=O)CS2 | 0.972 | -0.851
CCC(=O)N1CCc2cc(S(=O)(=O)NC(C(=O)Nc3ccc(CC)cc3)C(C)C)ccc21 (centres undefined) | 1.07 | 2.31
Cc1ccc(-c2nnc(Nc3cccc(O)c3)c3ccccc23)cc1S(=O)(=O)NC(C)(C)C | 0.402* | -11.3*
COc1ccc(Cn2c(=O)c3cccnc3n(Cc3cc(=O)n4cc(Cl)ccc4n3)c2=O)cc1 | 0.965 | -0.62
COc1ccccc1-c1nc(S(=O)(=O)c2ccc(C)cc2)c(N(C)C)o1 | 0.612 | -0.515
Cc1ccc(C)c(CN2C(=O)c3ccccc3S(=O)c3ccc(C(=O)N4CCCCCC4)cc32)c1 (centres undefined) | 0.991 | -0.135
CC1c2[nH]c3ccccc3c2CCN1C(=O)Nc1ccccc1 (centres undefined) | 0.757 | -3.08
Cc1ccc(S(=O)(=O)Nc2ccccc2CNc2ccccc2)cc1 | 0.986 | -0.136
COc1ccc(Cl)cc1NC(=O)c1cc(-c2cccs2)on1 | 0.798 | -2.79
CCC(C)NC(=O)c1ccc2c(c1)N=C(C)c1c(C)ccc(C)c1S2 (centres undefined) | 0.933 | -0.866
CCN(CC)S(=O)(=O)c1ccc2c(c1)N(CC(=O)NCCc1ccccc1)C(=O)CO2 | 1 | 0.0656
Cc1ccc(C2CC(=O)Nc3cc(C)c(C)cc32)cc1 (centres undefined) | 1.1 | 0.122
CNc1ccc(Br)cc1-c1nc2ccccc2n(CC(=O)O)c1=O | 1.17 | 2.65
Cc1ccc2c(c1)C(c1ccccc1)N(C(=O)COc1ccccc1)CC(=O)N2 (centres undefined) | 0.959 | -0.0558
CCN1CCN(C(=O)C2CCCN(C(=O)c3cnn(-c4ccccc4)c3-n3cccc3)C2)CC1 (centres undefined) | 1.26 | 1.98
CCc1ccccc1Nc1cc(C(=O)O)c2ccccc2n1 | 1.14 | 1.56
Cc1ccc(-n2nc(C)c3c(C)c(CCC(=O)NCCCN4CCCC4=O)c(C)nc32)cc1 | 1.13 | 0.961
COc1cccc(OCC(=O)N(Cc2nc(-c3cccc(C)c3)no2)C(C)C)c1 | 0.74 | -2.58

Next results follow.
SMILES | CBX7 AlphaScr | CBX7 AlphaScr z-score
CN(c1ccccc1)C(C(=O)NC1CCCCC1)c1ccc(Cl)cc1 (centres undefined) | 1.02 | 1.02
CCOc1ccccc1Cc1nc2cc(C)c(C)cc2[nH]c1=O | 0.96 | -1.19
O=C(Cc1ccccc1)Nc1ccc(Cl)c(-c2nc3ncccc3o2)c1 | 1.04 | 0.826
CCOc1ccc2c(c1)c(=O)c(S(=O)(=O)c1ccc(F)cc1)cn2CC(=O)Nc1ccc(C)cc1 | 0.993 | -0.214
COc1ccc(/C=C\c2onc(C)c2S(=O)(=O)N2CCC(C(=O)Nc3cccc(C)c3)CC2)cc1 | 1.02 | 0.169
O=C(NCc1cccs1)c1cc2c(s1)CS(=O)(=O)C2 | 1.02 | 0.573
Cc1ccc(Cn2nnc3c(=O)n(CC(=O)Nc4ccc(C)cc4C)cnc32)cc1 | 0.803 | -3.24
Cc1nc2cc(NC(=O)c3ccc(S(=O)(=O)N(C)Cc4ccccc4)cc3)ccc2s1 | 0.947 | -1.24
COc1ccc(C2CC(c3ccc(-c4ccccc4)cc3)Nc3nnnn32)cc1 (centres undefined) | 0.887 | -3.92
CC(C)Cn1c(CCNC(=O)C(C)(C)C)nc2ccccc21 | 0.979 | -0.303
COc1ccc(CC(=O)Nc2c3c(nc4ccccc24)N(Cc2ccccc2)CC3)cc1OC | 0.941 | -0.371
Cc1ccc2oc(-c3ccc(C)c(N)c3)nc2c1 | 0.987 | -0.22
CCc1ccc(-c2csc(NC(=O)c3ccc(S(=O)(=O)N4CC(C)CC(C)C4)cc3)n2)cc1 (centres undefined) | 1.01 | 0.238
Cc1ccc(C)c2[nH]c(=O)c(CCNC(=O)c3cccs3)cc12 | 1.06 | 0.108
Cc1ccccc1CN1C(=O)C(O)(CC(=O)c2ccccc2O)c2ccccc21 (centres undefined) | 0.923 | -0.193

6 compounds out of the list above, sorted by the value under CBX7 AlphaScr z-score, rising.
| Structure | CBX7 AlphaScr z-score |
| --- | --- |
| Cc1nc2cc(NC(=O)c3ccc(S(=O)(=O)N(C)Cc4ccccc4)cc3)ccc2s1 | -1.24 |
| CC(C)Cn1c(CCNC(=O)C(C)(C)C)nc2ccccc21 | -0.303 |
| CCc1ccc(-c2csc(NC(=O)c3ccc(S(=O)(=O)N4CC(C)CC(C)C4)cc3)n2)cc1 (centres undefined) | 0.238 |
| O=C(NCc1cccs1)c1cc2c(s1)CS(=O)(=O)C2 | 0.573 |
| O=C(Cc1ccccc1)Nc1ccc(Cl)c(-c2nc3ncccc3o2)c1 | 0.826 |
| CN(c1ccccc1)C(C(=O)NC1CCCCC1)c1ccc(Cl)cc1 (centres undefined) | 1.02 |

A second format for 7 compounds above.
| Structure | CBX7 AlphaScr | CBX7 AlphaScr z-score |
| --- | --- | --- |
| O=C(Cc1ccccc1)Nc1ccc(Cl)c(-c2nc3ncccc3o2)c1 | 1.04 | 0.826 |
| CCOc1ccc2c(c1)c(=O)c(S(=O)(=O)c1ccc(F)cc1)cn2CC(=O)Nc1ccc(C)cc1 | 0.993 | -0.214 |
| COc1ccc(/C=C\c2onc(C)c2S(=O)(=O)N2CCC(C(=O)Nc3cccc(C)c3)CC2)cc1 | 1.02 | 0.169 |
| O=C(NCc1cccs1)c1cc2c(s1)CS(=O)(=O)C2 | 1.02 | 0.573 |
| Cc1ccc(Cn2nnc3c(=O)n(CC(=O)Nc4ccc(C)cc4C)cnc32)cc1 | 0.803 | -3.24 |
| Cc1nc2cc(NC(=O)c3ccc(S(=O)(=O)N(C)Cc4ccccc4)cc3)ccc2s1 | 0.947 | -1.24 |
| COc1ccc(C2CC(c3ccc(-c4ccccc4)cc3)Nc3nnnn32)cc1 (centres undefined) | 0.887 | -3.92 |

Going on with the list.
SMILES | CBX7 AlphaScr | CBX7 AlphaScr z-score
O=C(NC1=NCCS1)Nc1ccc2snnc2c1 | 0.985 | -0.614
O=C(Nc1ccc2oc(-c3ccccc3Cl)nc2c1)c1cccc(Br)c1 | 0.957 | -2.22
COc1ccccc1NC(=O)c1c(NCc2cccs2)sc2c1CCCCC2 | 0.526 | -0.533
O=C1CN(C(=O)C2CCCC2)C(c2ccccc2)c2cc(F)ccc2N1 (centres undefined) | 1.03 | 0.109
CCOc1ccc(NC(=O)N(Cc2cccnc2)Cc2ccccc2Cl)cc1 | 0.83 | -0.169
COc1ccc(CNC(=O)c2cnn3c(C(F)(F)F)cc(-c4cccs4)nc23)cc1 | 0.908 | -2.27
CCc1ccc(NC(=O)c2ccc(F)c(S(=O)(=O)N3CCOCC3)c2)cc1 | 1.12 | 1.33
COc1ccc(-c2nc3cc(C)ccn3c2NC(=O)COc2ccc(Cl)cc2)cc1 | 1.25 | 2.38
FC(F)(F)c1ccccc1CN1CCN(Cc2cccnc2)CC1 | 1 | 0.0413
CSc1cccc(Nc2cc(C(=O)NCCCN3CCOCC3)c3ccccc3n2)c1 | 1.24 | 6.76
Cc1ccc(CN2C(=O)c3ccccc3Sc3ccc(C(=O)NCC4CCCO4)cc32)cc1 (centres undefined) | 0.932 | -0.906
CCOc1cc2c(cc1OCC)C(c1ccc(C(F)(F)F)cc1)NCC2 (centres undefined) | 1.05 | 0.782
COCCNC(=O)c1ccc2c(c1)N(Cc1ccc(F)cc1)C(=O)c1ccccc1S2(=O)=O | 1.08 | 1.43
CCN1C(=O)c2ccccc2S(=O)(=O)c2ccc(C(=O)N3CCC(C)CC3)cc21 | 0.999 | -0.0231
Cc1ccc(C(C)C)cc1OCC(O)Cn1c(C)nc2ccccc21 (centres undefined) | 0.922 | -1.07
CCC1=Nc2cc(C(=O)NCCc3ccc(OC)c(OC)c3)ccc2Sc2ccccc21 | 0.898 | -1.18
COc1ccc2cc(CCNC(=O)C(C)(C)Oc3ccc(Cl)cc3)c(=O)[nH]c2c1 | 1.02 | 0.459
COc1cc(Cl)c(C)cc1NC(=O)CNC(=O)Cn1cnc2ccccc2c1=O | 1.03 | 0.908
CCOC(=O)c1sc2nc(C)nc(NCc3ccccc3OC)c2c1C | 1.05 | 1.37
COc1ccc(NC(=O)[C@H](CCS(C)(=O)=O)N2Cc3ccccc3C2=O)c(OC)c1 | 1.04 | 0.791
COc1ccc(CCNC(=O)CC2Sc3ccc(C(F)(F)F)cc3NC2=O)cc1OC (centres undefined) | 1.03 | 1.03
COc1ccc(Cn2c(=O)[nH]c3cc(C(=O)NCCc4ccc(Cl)cc4)ccc3c2=O)cc1 | 0.988 | -0.3
Cc1ccccc1NC(=O)CN1C(=O)CC(c2ccccc2)Sc2ccccc21 (centres undefined) | 0.968 | -0.536
CC(=O)Nc1nc(-c2ccc(Oc3ccccc3)cc2)cs1 | 0.925 | -1.65

A portion of the library (hit frequency here may not be typical).
